# MLL AF4-AF9 inh: inhibitors of human MLL-AF4/AF9 interaction; P42568; AlphaScreen, biotin-AF4 peptide binding to FLAG-AF9; inhibition, % at 10 µM; actives 0.47% (n = 350,000); AID 651704;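 active = every replicate reaching a set inhibition limit, whatever the replicate mean, cut at about 25% in these data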;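 note: 0% = plate neutral control median and 100% = total signal loss; the record names both 10 and 1 µM as test concentration; the first replicate is given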
# Target sequence (P42568 whole entry, looked up): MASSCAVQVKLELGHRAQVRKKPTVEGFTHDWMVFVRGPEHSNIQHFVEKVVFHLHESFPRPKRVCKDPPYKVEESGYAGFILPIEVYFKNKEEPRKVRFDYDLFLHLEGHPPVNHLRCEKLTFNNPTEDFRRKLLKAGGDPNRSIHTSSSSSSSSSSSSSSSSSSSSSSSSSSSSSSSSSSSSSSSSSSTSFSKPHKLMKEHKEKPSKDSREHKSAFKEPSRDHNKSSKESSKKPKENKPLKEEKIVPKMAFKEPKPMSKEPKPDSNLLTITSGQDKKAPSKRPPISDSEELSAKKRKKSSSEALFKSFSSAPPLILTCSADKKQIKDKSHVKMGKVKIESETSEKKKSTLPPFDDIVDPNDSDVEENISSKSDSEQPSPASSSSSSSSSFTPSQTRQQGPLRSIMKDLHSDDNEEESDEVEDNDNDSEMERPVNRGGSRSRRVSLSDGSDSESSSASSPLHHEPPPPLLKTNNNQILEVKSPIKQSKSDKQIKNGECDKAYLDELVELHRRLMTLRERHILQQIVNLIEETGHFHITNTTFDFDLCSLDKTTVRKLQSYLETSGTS
# Ecoli rRNA inh: inhibitors of bacterial rRNA selective over humanized ribosomes; E. coli WT GFP vs humanized-ribosome RFP mutants, fluorescence, 24 h; hits give low values; DMSO median 0, no signal -100; GFP signal change (wild-type ribosome), % (test concentration not listed); actives 1.6% (n = 350,000);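 active = significant combined selectivity score with lowered wild-type GFP, culture density cut under 30%, mutant RFP and density less affected; inactive = any of these conditions unmet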; note: one replicate is shown; some compounds called inactive have numbers as strong as hits
# Ecoli rRNA inh OD600: further read-out of Ecoli rRNA inh, marked with its call; OD600 change, %; measured here: OD600 growth;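 optical density of the mix in the first replicate; 0 = DMSO median and -100 = no signal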
# Ecoli rRNA inh RFP: further read-out of Ecoli rRNA inh, marked with its call; RFP signal change, %; measured here: RFP humanized mutant strains;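 first replicate; 0 = DMSO median and -100 = no signal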
# The depositor's hits bear a star. The list is partial, so the mix of outcomes need not match the whole.
Ecoli rRNA inh OD600	Ecoli rRNA inh RFP	Ecoli rRNA inh	MLL AF4-AF9 inh	molecule
-13.8	-0.6	-3.0	1.8	C[C@@H]1CN([C@@H](C)CO)C(=O)c2cccc(NC(=O)NC3CCCCC3)c2O[C@H]1CN(C)Cc1ccc(Cl)c(Cl)c1
8.0	-4.7	0.2	-3.2	CCCN1[C@H](C(=O)NC2CCCC2)[C@@H](CO)[C@@H]2Cn3c(ccc(-c4cccnc4)c3=O)[C@@H]21
7.7	-0.3	-2.5	-0.1	Cn1cnc([N+](=O)[O-])c1Sc1ccncn1
1.3	-3.5	-0.9	-0.1	COc1ccc(S(=O)(=O)N(C)C[C@@H]2OCCCC[C@@H](C)Oc3ccc(NS(=O)(=O)c4ccc(F)cc4)cc3C(=O)N([C@@H](C)CO)C[C@@H]2C)cc1
0.5	-2.4	-1.5	1.6	C[C@H](O)C#Cc1ccc2c(c1)O[C@@H](CN(C)C(=O)C1CCCCC1)[C@@H](C)CN([C@H](C)CO)S2(=O)=O
5.1	-1.9	0.7	-4.0	COc1ccc(S(=O)(=O)N(C)C[C@H]2OCCCC[C@@H](C)Oc3ccc(NC(=O)c4ccccc4)cc3C(=O)N([C@H](C)CO)C[C@@H]2C)cc1
-1.4	0.6	-1.4	-3.4	C[C@H](CO)N1C[C@H](C)[C@H](CN(C)C(=O)Cc2ccccc2)OCCCC[C@H](C)Oc2ccc(NC(=O)c3ccccc3)cc2C1=O
11.2	-0.2	10.3	-1.0	C[C@@H]1CN([C@@H](C)CO)C(=O)c2cc(NC(=O)Nc3ccc(F)cc3)ccc2O[C@@H](C)CCCCO[C@H]1CN(C)C(=O)Nc1cccc2ccccc12
13.6	-1.8	5.1	-8.8	CC(C)NC(=O)N1[C@@H](C#N)[C@@H](c2ccc(C#CC3CCCCC3)cc2)[C@@H]1CO
-6.2	-1.1	-1.8	6.3	C/C=C/c1ccc2c(c1)O[C@@H](CN(C)CC1CCCC1)[C@H](C)CN([C@@H](C)CO)S2(=O)=O
6.5	-0.5	-1.0	-0.1	COc1ccc2c3c(n(C)c2c1)[C@@H](CO)N(C(=O)Cc1ccccc1)CC31CCN(C(C)=O)CC1
5.2	-0.6	1.5	13.5	C[C@H]1CN([C@@H](C)CO)C(=O)c2cccc(NC(=O)c3ccncc3)c2O[C@@H]1CN(C)Cc1ccc(C(=O)O)cc1
-3.1	-1.4	2.7	-2.5	CCC(=O)N1CC(=O)N2[C@H](C1)[C@H](c1ccc(-c3cccnc3)cc1)[C@@H]2CO
-2.3	0.3	-0.1	-2.5	C[C@@H]1CN([C@@H](C)CO)C(=O)c2cc(C#CC3(O)CCCC3)cnc2O[C@H]1CN(C)Cc1ccccn1
-8.3	3.1	-2.7	0.2	CC(C)CC#Cc1ccc2c(c1)O[C@H](CN(C)C(=O)Cc1ccncc1)[C@@H](C)CN([C@H](C)CO)S2(=O)=O
8.8	5.4	4.5	-4.4	CCC(=O)N1CC(=O)N2[C@@H](CO)[C@H](c3ccc(C#Cc4cccc(F)c4)cc3)[C@@H]2C1
-9.4	-1.2	-1.2	-1.9	C[C@H](O)C#Cc1ccc2c(c1)O[C@@H](CN(C)C(=O)C1CCC1)[C@H](C)CN([C@@H](C)CO)S2(=O)=O
-12.7	12.9	-2.5	6.9	C[C@H](CO)N1C[C@H](C)[C@H](CN(C)CC2CC2)Oc2cc(C#Cc3ccccc3)ccc2S1(=O)=O
-6.6	0.1	4.9	4.3	COc1ccc2c3c(n(C)c2c1)[C@H](CO)N(Cc1ccccc1OC)CC31CN(CC2CC2)C1
-0.6	-2.3	-1.2	-1.5	CN1C(=O)c2cc(NC(=O)NC3CCCC3)ccc2OC[C@H]2O[C@H](CC(=O)NCC3CC3)CC[C@@H]21
7.0	0.4	-1.0	2.0	O=C(c1cccnc1)N1C[C@@H]2[C@H](c3ccccc31)[C@@H](CO)N2Cc1ccc2c(c1)OCO2
1.9	-1.1	-1.3	-2.0	COc1ccc(S(=O)(=O)N(C)C[C@@H]2Oc3c(NC(=O)c4ccncc4)cccc3C(=O)N([C@@H](C)CO)C[C@@H]2C)cc1
0.3	-3.2	1.7	-11.4	C[C@@H]1CN([C@@H](C)CO)C(=O)c2cc(C#CC(C)(C)O)cnc2O[C@@H]1CN(C)Cc1cncnc1
4.5	2.7	0.1	0.7	CCCCCCN1CCN(C2CN(Cc3cn(Cc4ccc(Cl)cc4)nn3)S(=O)(=O)C2)CC1 (configuration not stated)
-1.5	2.4	-3.1	5.2	Cc1noc(C)c1NC(=O)NCC[C@@H]1CC[C@@H](NC(=O)Nc2cccc(Cl)c2)[C@H](CO)O1
-3.8	1.4	2.7	-2.7	C[C@H](CO)N1C[C@H](C)[C@H](CN(C)Cc2ccncc2)Oc2ccc(N(C)C)cc2C1=O
9.7	-0.2	1.4	-0.9	COCC#Cc1cnc2c(c1)C(=O)N([C@H](C)CO)C[C@H](C)[C@@H](CN(C)C(=O)CN1CCOCC1)O2
5.8	0.7	1.0	1.1	O=C(Cc1cccnc1)N1CC(=O)N2[C@H](CO)[C@@H](c3ccc(C4=CCCCC4)cc3)[C@@H]2C1
16.8	-0.4	13.0	-0.7	O=C(/C=C/[C@H]1O[C@@H](n2ccc(=O)[nH]c2=O)[C@H](O)[C@@H]1O)NCCCc1ccccc1
-9.2	-1.1	-5.3	0.9	C[C@@H]1CN([C@@H](C)CO)C(=O)c2cc(-c3ccccc3)cnc2O[C@H]1CN(C)C(=O)C1CCCCC1

# In another format: entries from further up.
# Order of values: Ecoli rRNA inh OD600	Ecoli rRNA inh RFP	Ecoli rRNA inh	MLL AF4-AF9 inh
- C[C@@H]1CN([C@@H](C)CO)C(=O)c2cc(C#CC(C)(C)O)cnc2O[C@@H]1CN(C)Cc1cncnc1
    0.3	-3.2	1.7	-11.4
- O=C(c1cccnc1)N1C[C@@H]2[C@H](c3ccccc31)[C@@H](CO)N2Cc1ccc2c(c1)OCO2
    7.0	0.4	-1.0	2.0

# Ordered by value in MLL AF4-AF9 inh (low to high): 4 from the list above.
Ecoli rRNA inh OD600	Ecoli rRNA inh RFP	Ecoli rRNA inh	MLL AF4-AF9 inh	molecule
0.3	-3.2	1.7	-11.4	C[C@@H]1CN([C@@H](C)CO)C(=O)c2cc(C#CC(C)(C)O)cnc2O[C@@H]1CN(C)Cc1cncnc1
-3.8	1.4	2.7	-2.7	C[C@H](CO)N1C[C@H](C)[C@H](CN(C)Cc2ccncc2)Oc2ccc(N(C)C)cc2C1=O
16.8	-0.4	13.0	-0.7	O=C(/C=C/[C@H]1O[C@@H](n2ccc(=O)[nH]c2=O)[C@H](O)[C@@H]1O)NCCCc1ccccc1
4.5	2.7	0.1	0.7	CCCCCCN1CCN(C2CN(Cc3cn(Cc4ccc(Cl)cc4)nn3)S(=O)(=O)C2)CC1 (configuration not stated)

# Following part:
Ecoli rRNA inh OD600	Ecoli rRNA inh RFP	Ecoli rRNA inh	MLL AF4-AF9 inh	molecule
5.5	-0.8	1.9	-0.7	C[C@@H](NC(=O)C[C@@H]1CC[C@@H](NC(=O)C2CCOCC2)[C@H](CO)O1)c1ccccc1
-1.4	0.2	-4.2	1.9	O=C(C1CCCCC1)N1[C@H](CO)[C@H]2c3ccccc3NC[C@H]21
4.2	0.3	-5.0	-1.0	C[C@H](CO)N1C[C@H](C)[C@@H](CN(C)C)Oc2c(NC(=O)Nc3ccc(C(F)(F)F)cc3)cccc2C1=O
9.2	5.6	12.5	0.0	CN(C)c1ncnc2c1ncn2[C@H]1CN(Cc2ccccc2)C[C@@H](CO)O1
5.3	-1.9	1.2	-4.3	C[C@@H]1CN([C@@H](C)CO)C(=O)Cc2cc(NC(=O)CCN3CCOCC3)ccc2O[C@H]1CN(C)Cc1ccc(C(=O)Nc2ccccc2N)cc1
-23.1	2.4	2.4	3.2	COc1ccc(S(=O)(=O)Nc2ccc3c(c2)CC(=O)N([C@@H](C)CO)C[C@H](C)[C@H](CN(C)Cc2ccccc2)O3)cc1
10.5	1.6	23.6	-6.1	COCCN1C[C@@H](CO)O[C@@H](n2cnc3c(NC4CCC4)ncnc32)C1
1.6	-7.4	-7.7	5.6	O=C(c1cccnc1)N1CC[C@H]2[C@H](CO)Nc3ccc(-c4ccc(F)cc4)cc3[C@H]21
-9.1	-0.6	-0.7	-2.7	C[C@@H]1CN([C@@H](C)CO)C(=O)c2cc(NS(=O)(=O)c3ccc(F)cc3)ccc2O[C@@H](C)CCCCO[C@H]1CN(C)Cc1ccc(C(=O)O)cc1
1.0	1.8	2.2	-2.4	CCOC(=O)N1CCC2CC1c1cc(Cl)ccc12 (configuration not stated)
3.5	-2.6	0.9	-1.9	O=C([C@H]1[C@H](CO)[C@H]2Cn3c(ccc(-c4ccccc4F)c3=O)[C@@H]1N2C(=O)C1CCC1)N1CCCCC1
-33.9	26.8	0.9	3.4	CCCC#Cc1ccc([C@@H]2[C@@H](CO)N3CCCCN(Cc4cccnc4)C[C@@H]23)cc1
-4.2	5.5	0.5	17.0	CCCN1CCC2(CC1)CN(Cc1ccccc1OC)[C@@H](CO)c1c2c2ccc(OC)cc2n1C
11.7	-0.2	3.0	-1.1	C[C@@H]1CCCCO[C@@H](CN(C)S(=O)(=O)c2ccc(F)cc2)[C@@H](C)CN([C@H](C)CO)C(=O)c2cc(NC(=O)Nc3cccc4ccccc34)ccc2O1
14.3	12.9	4.5	-3.8	COc1ccc(-c2ccc([C@@H]3[C@H]4CN(C(=O)c5ccc(F)cc5)CCCCN4[C@H]3CO)cc2)cc1
14.8	-2.0	0.1	-1.7	COc1ccc(C(=O)N2C[C@@H]3[C@H](c4ccccc42)[C@H](CO)N3C(=O)c2cccc(F)c2)cc1
1.3	1.6	1.2	-2.5	CCC(=O)Nc1ccc2c(c1)OC[C@@H](C)N(C(=O)c1cccnc1)C[C@H](C)[C@@H](OC)CN(C)C2=O
-2.7	-3.0	-3.1	0.6	C[C@@H]1CN([C@@H](C)CO)C(=O)c2cc(C#CCc3ccccc3)cnc2O[C@@H]1CN(C)Cc1cccc(C(=O)O)c1
-1.4	1.1	5.6	-1.6	C[C@@H]1CN([C@@H](C)CO)C(=O)c2cc(NS(=O)(=O)c3cn(C)cn3)ccc2O[C@@H]1CN(C)Cc1ccc2c(c1)OCO2
-0.2	1.3	0.6	1.2	CCC(=O)N(C)C[C@H]1Oc2ncc(/C=C/c3ccccc3)cc2C(=O)N([C@@H](C)CO)C[C@H]1C
9.5	-2.4	-1.5	-6.3	C[C@@H]1CN([C@@H](C)CO)C(=O)c2cc(C3=CCCC3)cnc2O[C@H]1CN(C)C(=O)C1CCC1
-54.5	15.5	-36.0	8.2	C[C@@H]1CN([C@@H](C)CO)S(=O)(=O)c2ccc(C#CC3CC3)cc2O[C@H]1CN(C)Cc1cccnc1
-74.7	-14.1	-53.2	1.4	CCc1nc2c(OCc3ccc(C(F)(F)F)cc3)cccn2c1N(C)C(=O)C(C)C
7.1	0.8	1.2	1.3	O=C(CCN1CCCCC1)N[C@H]1CC[C@H](CC(=O)N2CCC(Cc3ccccc3)CC2)O[C@H]1CO
-11.7	0.8	-3.0	-1.1	C[C@@H]1CN([C@H](C)CO)C(=O)CCCn2cc(nn2)CO[C@@H]1CN(C)Cc1ccc(Oc2ccccc2)cc1
-1.0	2.1	0.7	0.2	CCN1[C@@H]2c3ccc(-c4ccccc4)c(=O)n3C[C@@H]2[C@@H](CO)[C@@H]1C(=O)NCC(F)(F)F
2.4	-0.6	4.0	-7.0	C[C@H](CO)N1C[C@H](C)[C@@H](CN(C)S(=O)(=O)c2cn(C)cn2)Oc2ccc(NS(=O)(=O)c3cccs3)cc2CC1=O
-2.7	-0.1	-1.9	6.1	C[C@H](CO)N1C[C@H](C)[C@@H](CN(C)Cc2ccc(Oc3ccccc3)cc2)Oc2c(NS(=O)(=O)c3ccccc3)cccc2C1=O
20.3	-0.4	14.8	-3.1	COc1ccncc1-c1csc(C(O)c2ccccc2)n1 (configuration not stated)
10.8	1.9	2.5	1.0	CCCCN1CC(COCc2ccccc2)Oc2cccc(Oc3ccc(F)cc3OC)c2S1(=O)=O (configuration not stated)
2.9	0.6	4.3	-1.9	CN(C(=O)C(C)(C)C)[C@H]1C[C@H]2c3[nH]c4ccccc4c3CCN2C(=O)[C@H]1CO
8.4	-4.6	-2.6	-1.3	C[C@H]1CN([C@@H](C)CO)C(=O)c2cc(C#CC3CC3)cnc2O[C@@H]1CN(C)C
8.3	-0.9	-3.9	0.3	Cc1ccc(S(=O)(=O)N(C)C[C@H]2Oc3ncc(-c4ccncc4)cc3C(=O)N([C@@H](C)CO)C[C@@H]2C)cc1
-3.8	-0.9	-1.9	-1.7	COc1cc(CCC(=O)Nc2ccc(S(=O)(=O)N3CCCC3)cc2)cc(OC)c1OC
6.8	-1.9	3.1	-2.8	C[C@H](CO)N1C[C@H](C)[C@H](CN(C)C(=O)c2ccccc2)Oc2ncc(-c3ccc(C#N)cc3)cc2C1=O
4.5	-2.5	1.2	-1.0	COCCNC(=O)C1(C)CCCN(Cc2cc(C)ccc2C)C1 (configuration not stated)
7.4	-3.1	0.3	-3.0	C/C=C/c1cnc2c(c1)C(=O)N([C@H](C)CO)C[C@H](C)[C@H](CN(C)Cc1ccc(F)cc1)O2
2.9	-5.1	-2.3	-3.5	COc1ccc(-c2cncc3nccn23)cc1OC
6.0	-1.5	-1.5	-1.3	COCC#Cc1cnc2c(c1)C(=O)N([C@@H](C)CO)C[C@H](C)[C@@H](CN(C)S(=O)(=O)c1ccccc1)O2

# From PubChem BioAssay
